Source: PubChem (several laboratories)
Rce1 inhib = yeast Ras-converting enzyme inhibition; calls only; 290,000 compounds, 0.27% hits; yeast membranes, quenched prenylated peptide cleavage fluorescence;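 active = fall in fluorescence gain of 50% or more versus controls, with final raw signal at or below 3038400; inconclusive = same 50% fall but final raw signal above 3038400; inactive = fall in fluorescence gain under 50%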;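 also: plate controls were neutral control wells for no effect and wells lacking membranes for full effect; tested at 10 µM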
Yeast UUG start = alters start codon recognition fidelity in yeast. 350,000 compounds, 0.13% hits. S. cerevisiae UUG-firefly luciferase reporter, luminescence/redox ratio. activity score, % at 18.7 µM;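 active = replicate mean at a twofold rise or more, about +100% in these data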;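 also: firefly luciferase made from a UUG start codon reports start codon fidelity; reporter light over untreated wells divided by growth signal over untreated wells; some hits fall short of that in this replicate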
HIV Env fusion = inhibitors of HIV Env-mediated cell fusion; inhibition, % at 12.3 µM; AID 651610; HeLa-JRFL Env/CEM21 cell fusion, luciferase; 360,000 compounds, 1.1% hits;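 active = mean replicate inhibition score of at least 50 and every replicate individually at or above 50; inconclusive = only one of the two criteria met; inactive = mean below 50 and not all replicates reaching 50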;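 also: 0% = plate neutral controls and 100% = maraviroc near 300 nM; one replicate is shown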
PABP polyA inh = PABP-poly(A) binding inhibition. inhibition, % at 35 µM. AID 2014. PABP-poly(A) RNA binding, fluorescence polarization. P11940. 290,000 compounds, 1% hits;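 active = 50% or more with normal probe brightness, or confirmed in later tests; inconclusive = above 50% with abnormal brightness, or retests that disagree; inactive = below 50% or failed in later tests; about a fifth of its hits are not listed in these tables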;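 also: calls also rest on retests at 20 µM and on dose response follow-up; controls were probe without protein and protein plus probe with vehicle; some compounds called inactive have numbers as strong as hits; many hits fall short of the cut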
Target sequence (P11940 whole entry, looked up): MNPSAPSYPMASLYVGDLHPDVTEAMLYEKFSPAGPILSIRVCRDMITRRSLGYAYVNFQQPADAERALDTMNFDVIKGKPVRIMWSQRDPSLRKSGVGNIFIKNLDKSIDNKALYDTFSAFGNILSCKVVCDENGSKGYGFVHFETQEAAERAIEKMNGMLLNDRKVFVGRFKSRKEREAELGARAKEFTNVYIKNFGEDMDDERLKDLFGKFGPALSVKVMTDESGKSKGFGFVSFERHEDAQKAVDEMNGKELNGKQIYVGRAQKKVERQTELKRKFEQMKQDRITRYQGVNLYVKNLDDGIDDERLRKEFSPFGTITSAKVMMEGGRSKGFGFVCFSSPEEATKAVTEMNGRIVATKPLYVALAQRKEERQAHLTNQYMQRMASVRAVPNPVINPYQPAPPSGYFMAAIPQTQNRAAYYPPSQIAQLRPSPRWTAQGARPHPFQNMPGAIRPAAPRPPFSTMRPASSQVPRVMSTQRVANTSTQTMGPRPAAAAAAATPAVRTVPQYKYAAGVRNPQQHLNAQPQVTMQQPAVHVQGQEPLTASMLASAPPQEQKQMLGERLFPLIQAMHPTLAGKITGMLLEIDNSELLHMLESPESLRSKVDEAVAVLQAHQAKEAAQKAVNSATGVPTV
CSC inhib = cancer stem cell inhibition | cancer stem cell-like cells viability, luminescence | inhibition, % at 7.5 µM | 300,000 compounds, 1.1% hits;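 active = mean at 75% or more and at least half the replicates too; inconclusive = mean and replicates disagree; tested in HMLE shEcad cells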;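 also: 0% = median of negative and 100% = median of positive control wells; the first replicate is given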
MT1-MMP act inh = inhibitors of human MT1-MMP activation | GFP/RFP ratio change, % at 20 µM | 360,000 compounds, 0.061% hits | P50281 | HT1080 RFP-PRO-GFP cells, GFP/RFP ratio fluorescence, overnight; percent of plate control window, DMSO zero;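 active = GFP/RFP ratio change of at least 30% with cell ATP level not reduced by more than half and red fluorescence within 50% of control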; also: strong numbers were not always called active
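Assay system: RFP-PRO-GFP reporter HT1080 cells; read-out basis: GFP/RFP fluorescence ratio; benchmarks: DMSO wells and RFP-L50D-GFP cells; doses: 20 µM single dose, 1% DMSO; schedule: overnight cell settling, then overnight compound exposure, 37 °C, 5% CO2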
eIF4H FP inh = inhibitors of RNA binding by human eIF4H. Q15056. eIF4H fluorescence polarization binding assay. AID 2012. 290,000 compounds, 0.94% hits. inhibition, % at 35 µM;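 active = 50% or more with normal probe brightness, or confirmed in later tests; inconclusive = above 50% with abnormal brightness, or retests that disagree; inactive = below 50% or failed in later tests; about a fifth of its hits are not listed in these tables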;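 also: calls also rest on retests at 20 µM and on dose response follow-up; 0% = protein and probe with vehicle and 100% = probe without protein; strong numbers were not always called active; many hits fall short of the cut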
eIF4H FP inh retest = also measured in eIF4H FP inh; calls as there; inhibition, %; compound at 20 µM; confirmation average;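 mean of two retest wells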
PABP polyA inh retest = further read-out of PABP polyA inh, marked with its call; inhibition, %; compound at 20 µM; confirmation repeats;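 mean of two retest wells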
MT1-MMP act inh RFP = recorded beside MT1-MMP act inh, whose call it bears; RFP signal change, %; measured here: RFP expression control read;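 0 = vehicle wells; hits needed this value within 50% of zero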
An asterisk follows results filed as active; i = inactive; ? = inconclusive; nt = not tested or not shown; + = active, no number; & = joins results of further samples; [ ] = another dose, or the depositor's remark.

SMILES	Rce1 inhib	Yeast UUG start	HIV Env fusion	PABP polyA inh	CSC inhib	MT1-MMP act inh	MT1-MMP act inh RFP	eIF4H FP inh	others
CCOc1ccc(-c2cc(CCCC(=O)Nc3cccc(OC)c3)no2)cc1	i	-28	76*	-19	57	8	-12	3
CC(Sc1nc(-c2ccccc2)cc(C(F)(F)F)n1)C(=O)NCCN1CCOCC1 (stereo not drawn)	nt	-5	nt	-1	-7	0	1	-1
CC(=O)NC(=O)c1ccc(-c2ccc(Cl)cc2)o1	i	-19	-412	-1	7	7	3	-8
Cc1ccc(-n2nnnc2-c2cccc(C)c2)cc1	i	nt	2	15	-6	-1	-2	-4
O=C1/C(=C/c2cccs2)SC(=S)N1CCC(=O)N1CCCCC1CCO (stereo not drawn)	i	-8	-30	-10	-1	1	-8	-12
CC(C)(C)OC(=O)N1CCC(NC(=O)c2[nH]cnc2C(=O)Nc2ccc(Cl)cc2)CC1	nt	-3	-13	nt	89*	-2	-7	nt
Cc1cccc(C)c1OCC(=O)NCc1ccccc1	i	-7	-12	2	-9	2	1	-14
O=C(Nc1cccc2ncccc12)c1ccc(-c2ccc(Br)cc2)o1	i	nt	32	9	-3	-13	-6	-6
CC(C)(C)c1ccc(C(=O)NC(=S)NNC(=O)COc2ccccc2)cc1	nt	-22	-17	-15	23	3	3	-3
COCCOC(=O)c1c(NC(=O)CNC2CCCc3ccccc32)sc(C(N)=O)c1C (stereo not drawn)	i	-17	8	-8	-8	3	6	-7
NC(=O)c1ccc2nc(NC(=O)c3ccc(N)cc3)sc2c1	i	nt	-38	-5	nt	-2	-5	1
CCN(C(=O)COC(=O)Cn1c(=O)oc2ccccc21)c1c(N)n(Cc2ccccc2)c(=O)[nH]c1=O	nt	2	0	nt	nt	4	5	nt
COc1cc(C2=NOC(C(=O)N3CCOCC3)C2)cc(OC)c1OC (stereo not drawn)	i	-1	2	-8	nt	4	1	3
CC(C)(C)C(=O)Nc1ccc(S(=O)(=O)N2CCCC2)cc1	i	1	-15	-8	-13	1	0	95	eIF4H FP inh retest=-6;PABP polyA inh retest=6
Cn1c2ccccc2c2c(C(=O)N3CCN(C(=O)c4ccco4)CC3)cn(C3CCCCC3)c(=O)c21	i	nt	26	0	-2	1	2	6
CCCCC1OC2(C)OC(=N)C1(C#N)C(C#N)(C#N)C2c1ccccc1 (stereo not drawn)	nt	nt	nt	-24	-11	-7	14	?
COc1ccc2nc(C(F)(F)Cl)c(C#N)c(N)c2c1	i	nt	23	5	-2	-5	-13	2
Cc1cccc(N2CCN(C(=O)c3cc4ccccc4oc3=O)CC2)c1C	i	-14	32	-12	-7	0	3	3
CC(C(=O)O)N(C(=O)c1ccccc1)c1ccc(F)cc1 (stereo not drawn)	i	-5	-10	3	-14	3	7	-3
COc1ccc(CCNC(=O)Cn2c(-c3nonc3N)nc3ccccc32)cc1OC	i	13	nt	-8	-1	-1	0	2
O=C(Nc1ccccc1)OCc1ccccn1	i	-10	-48	1	nt	0	-1	-4
CC(C)OC(=O)CN1C(=O)C(C)(C)Oc2ccc(C(=O)NC(C)(C)C)cc21	i	-8	-28	-14	-7	-5	-2	-10
C#CCOC(=O)c1ccccc1C(=O)n1nnc2ccccc21	i	-12	33	1	-2	-2	-1	-8
COc1ccc(OC)c(S(=O)(=O)CC(O)CS(=O)(=O)c2ccccc2)c1 (stereo not drawn)	i	9	-1	7	-11	-2	3	-8
Cc1c(Cl)cccc1NC(=O)c1ccccc1-c1ccccc1C(=O)O	i	-11	6	-3	1	-2	0	-17
CC1Cc2cc(C(=O)O)ccc2O1 (stereo not drawn)	i	-15	nt	12	-8	-1	4	-1
O=c1c2ccccc2nc2c3ccccc3c3nncn3n12	i	-8	nt	-1	nt	1	-1	4
COC(=O)CC/C(O)=C1\C(=O)CC(C)(C)CC1=NCCc1nc2ccccc2[nH]1	nt	-21	-7	-4	-10	-1	-1	-6
CC1CCCCN1CCNC(=O)c1cc2c(=O)n(C)c3ccccc3c2n1C (stereo not drawn)	i	-6	-44	21	14	-2	3	27
O=C(c1ccco1)N1CCC(N2CCN(c3ccccc3)CC2)CC1	i	-8	-1	-4	1	0	3	-5
O=C(C1CC1)N1CCc2cc(S(=O)(=O)NCCC3=CCCCC3)ccc21	i	-15	nt	-5	-10	5	1	1
CN(C(=O)c1cccc(NC(=O)Cc2ccc(NC(=O)C3CCCN(C(=O)C4CCCC4)C3)cc2)c1)C1CCC1 (stereo not drawn)	nt	14	-12	nt	nt	1	-2	nt
O=C(NC1CCCCC1)c1cc([N+](=O)[O-])ccc1N1CCCCC1	i	nt	40	-1	nt	-5	-4	-7
CCOC(=O)c1cc(-c2ccc3c(c2)OCCO3)nc2c1c(C)nn2CCC#N	i	-5	nt	2	-4	-1	-3	-5
Cc1c(C(=O)O)sc(S(=O)(=O)N2CCNCC2)c1C(=O)O	i	nt	10	4	nt	nt	nt	2
O=C(N/N=C/c1ccc([N+](=O)[O-])cc1)c1ccc(NS(=O)(=O)c2cccs2)cc1	nt	3	nt	nt	-5	-2	-3	nt
O=C(c1cc(-c2cccs2)nc2ccccc12)N1CCN(S(=O)(=O)c2ccccc2)CC1	i	-8	16	-13	-7	-4	-9	-15
Cc1cccc(/C=N/NC(=O)c2ccc(Br)cc2)c1	+	-15	-24	3	5	4	6	-8
O=C(Oc1ccc(=O)n(-c2ccccc2)n1)c1ccc(F)cc1	i	3	-31	-11	0	-1	3	5
COc1ccc(NC(=O)CSc2nc3sc4c(c3c(=O)n2-c2ccc(OC)cc2)CCN(C)C4)cc1	i	9	-4	-24	-16	-8	-4	-13
COc1cc(S(=O)(=O)n2ccnc2)ccc1Br	i	nt	17	-7	nt	0	7	13
CCN(C(=O)C1CC1)C1CCS(=O)(=O)C1 (stereo not drawn)	i	-6	nt	nt	7	2	3	nt
COc1ccc(-n2[nH]c(C)cc2=O)cc1	i	nt	nt	4	6	5	2	-3
Cc1cnc(NC(=O)C2CC=CCC2)s1 (stereo not drawn)	i	-14	15	0	-8	-6	0	-5
Cc1ccccc1NC(=O)C1CCN(S(=O)(=O)c2cccs2)CC1	i	4	2	18	2	-18	-11	0
N#CCC(=O)NC1CCC(CC2CCC(NC(=O)CC#N)CC2)CC1 (stereo not drawn)	i	-13	-10	2	10	-1	-2	7
CC1Cc2ccccc2N1C(=O)COC(=O)Cn1nnc(-c2ccccc2)n1 (stereo not drawn)	i	-4	nt	7	1	-3	3	-2
C=CCOc1c2ccc(C(=O)NC3CCCc4ccccc43)cc2nn1C (stereo not drawn)	i	-13	-3	2	0	3	3	-2
CN1CCc2c(sc3c2c(=O)n(-c2cccc(Cl)c2)c2nncn32)C1	i	3	nt	nt	-23	-6	0	nt
O=C(COc1ccccc1Br)NCc1ccccn1	i	-26	-28	-3	-7	0	5	-4
O=Cc1ccc(OC(=O)c2cccnc2)cc1	i	1	17	-4	9	-3	0	3
CCNC(=O)C1(C)CCCN(Cc2csc(-c3ccc(Cl)cc3)n2)C1 (stereo not drawn)	nt	-23	38	nt	nt	-6	-4	nt
CCN(c1ccc(NC(=O)c2ccc(N3CCCC3=O)cc2)cc1)C(C)C	i	-14	10	nt	9	-5	-26	nt
Cc1ccc2c(NC(=S)NC(=O)c3ccccc3)cccc2n1	i	-19	-5	12	-5	1	-4	-15
COCCn1c(SCC(=O)Nc2nnc(C)s2)nnc1-c1ccncc1	i	-12	-5	-1	nt	1	-1	-8
CCOC(=O)[C@H]1[C@H]2COc3ccc(Cl)cc3[C@@H]2N2C(=O)c3ccccc3NC(=O)[C@@]12C	nt	-2	-45	nt	14	-1	-8	nt
CC(/C=N/NC(=O)c1nnn(-c2nonc2N)c1CN1CCCCC1)c1ccccc1 (stereo not drawn)	i	-16	-10	nt	11	-1	6	nt
CCCc1nc2oc3c(OCC)ncnc3c2c2c1COC(C)(C)C2	i	-3	nt	6	-1	9	-3	-5
CCOC(=O)N1CCN(C(c2cccnc2)c2ccc3cccnc3c2O)CC1 (stereo not drawn)	i	nt	nt	7	31	9	4	5
NC(=O)CSc1ncnc2c1nnn2Cc1ccc(F)cc1	i	nt	17	-4	2	0	0	11
The list goes on:
SMILES	Rce1 inhib	Yeast UUG start	HIV Env fusion	PABP polyA inh	CSC inhib	MT1-MMP act inh	MT1-MMP act inh RFP	eIF4H FP inh	others
O=C1CCCCC/C1=N/Nc1ccc(OCc2ccccc2)cc1	i	-27	-25	-4	58	4	3	0
COc1ccc(CN(CCC(c2ccco2)C(C)C)C(C)=O)cc1OC (stereo not drawn)	i	-5	2	7	6	1	0	4
O=C(CSc1nnnn1-c1ccc2c(c1)CCC2)NCc1cccs1	i	-9	nt	5	3	5	1	2
O=C(CSc1nc(-c2ccco2)cc(C(F)(F)F)n1)NCC1CCCO1 (stereo not drawn)	i	-13	nt	-1	-11	1	0	7
N#C/C(=C(/O)c1ccc(Cl)cc1)c1nc2ccccc2[nH]1	i	-20	-9	-6	4	-2	-1	-7
Cc1ccc(CN2CCN(Cc3cn(C)nc3C)CC2CCO)o1 (stereo not drawn)	i	nt	17	-2	-6	-1	1	0
O=C(CSc1nc(C2CC2)n(-c2ccccc2)n1)NCc1ccco1	nt	-9	nt	nt	-12	-4	-2	nt
CC(/C=C\C=C\c1ccccc1)=N\NC(=O)c1cncc(Br)c1	i	nt	5	56	32	2	4	5	eIF4H FP inh retest=-4;PABP polyA inh retest=-5
COc1ccccc1-n1cc(CN2CCN(CC(C)C)C(CCO)C2)cn1 (stereo not drawn)	i	-6	-12	-7	10	-5	1	4
CCOc1ccc(NCCC(O)c2ccc(F)cc2)cc1 (stereo not drawn)	i	-20	11	13	3	-6	-2	2
Nc1ncnc2c1ncn2CCOc1ccccc1	i	-22	-167	10	-21	1	-5	-2
COc1ccc(NC(=O)C2CCCN(c3nccc(C)n3)C2)cc1 (stereo not drawn)	i	nt	2	11	-11	2	3	14
Cc1ccc(-c2onc3ccc(C=O)cc23)cc1	i	-26	nt	30	6	5	11	2
O=C(CNC(=O)c1ccccc1Br)N/N=C/c1cc(Br)ccc1O	i	-11	14	-4	31	3	-5	3
Cc1ccc(C(=O)CN2CCC(NC(=O)C3CCCCC3)CC2)cc1	i	-7	-71	-3	nt	1	5	0
C[C@H]1CN([C@@H](C)CO)C(=O)Cc2cc(NC(=O)CCN3CCOCC3)ccc2O[C@@H]1CN(C)Cc1ccc(Oc2ccccc2)cc1	nt	-3&18	-3[16.7 µM]	nt	5	2	4	nt
CCN(C(=O)CCC(=O)N(CC)c1ccccc1)c1ccccc1	i	nt	-33	2	11	-3	1	0
COc1ccc(C2CC(C(F)(F)F)n3nc(CO)c(Cl)c3N2)cc1OC (stereo not drawn)	i	-8	-45	-6	-15	-9	-4	-2
CC(C)(C)OC(=O)NCCC(=O)N/N=C/c1ccc2ncccc2c1	i	-9	-5	2	-15	0	1	-5
O=C(Cc1ccc(Cl)cc1)Nc1cc(S(=O)(=O)N2CCOCC2)ccc1N1CCCC1	i	nt	1	18	20	-4	-5	3
COCCNc1oc(/C=C/c2ccccc2)nc1C#N	?	nt	-69	2	20	3	2	5

The list is partial; count on the stated rates, not on these rows.
